Rango complex inh: inhibitors of Rango-importin beta complex formation | Rango CFP/YFP FRET sensor + importin beta, 45 min | 0.031% of 340,000 active | Potency, µM (titrated, usually from 92.2 µM), inactives show at the top dose inhibition of complex formation | AID 540263; active = rising FRET ratio curve, often small or poorly fitted; inconclusive = mostly compound fluorescence or quenching in the first reads; inactive = flat curves in all reads;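 note: potency is the fitted concentration of half-maximal effect; 0% = DMSO wells and 100% = buffer wells lacking importin beta; nearly all actives have a fitted effect of over 15% in size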
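Inhibition scored from the CFP 486 nm/YFP 530 nm FRET ratio 45 min after adding 0.125 microM importin beta to 50 nM Rango biosensor preincubated 5 min with compound (room temperature, PBS with DTT, Tween-20, BSA). No-importin wells as positive control.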
Rango dissoc inh: inhibitors of RanGTP-induced Rango-importin beta complex dissociation | Biochemical FRET Rango-importin beta, RanGTP-induced dissociation | Potency, µM (series often up to 46.1 µM), inactives show top-dose activity change, negative = inhibition | 0.071% of 340,000 active | AID 540253; active means falling FRET ratio curve, often poorly fitted, with flat reads before Ran was added; inconclusive means other falling curves, or compound fluorescence or quenching; inactive means flat or rising ratio curve;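 note: potency is the fitted concentration of half-maximal effect; % of control where 0% means no effect; nearly all actives have a fitted effect of over 45% in size; -100% = wells without RanGTP and RCC1; the record marks most hits as doubtful in a second field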
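Rango FRET biosensor (snurportin-1 IBB flanked by N-terminal EYFP and C-terminal CFP10) at 0.1 uM, with 0.25 uM importin beta in PBS, 1mM DTT, 0.02% Tween-20, 0.1% BSA. 0.6 uM Ran, 2mM GTP and 0.2 uM RCC1 were then added for 45 min at room temperature. Inhibition read as loss of FRET rise.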
GLA inh pH 4.5: inhibitors of human alpha-galactosidase A at pH 4.5; P06280; purified enzyme, 4-MU-alpha-Gal fluorescence, pH 4.5; 230,000 tested, under 10 active; activity change, negative = inhibition, % at 105 µM; inconclusive = small, poorly fitted or top-dose-only inhibition, or a rising curve; inactive = flat fitted curve, though single readings scatter; no compound was filed as active;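 note: 0% = full activity with enzyme and -100% = basal without enzyme; dose as in the result columns while the protocol names 77 µM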
Target sequence (P06280 whole entry, looked up): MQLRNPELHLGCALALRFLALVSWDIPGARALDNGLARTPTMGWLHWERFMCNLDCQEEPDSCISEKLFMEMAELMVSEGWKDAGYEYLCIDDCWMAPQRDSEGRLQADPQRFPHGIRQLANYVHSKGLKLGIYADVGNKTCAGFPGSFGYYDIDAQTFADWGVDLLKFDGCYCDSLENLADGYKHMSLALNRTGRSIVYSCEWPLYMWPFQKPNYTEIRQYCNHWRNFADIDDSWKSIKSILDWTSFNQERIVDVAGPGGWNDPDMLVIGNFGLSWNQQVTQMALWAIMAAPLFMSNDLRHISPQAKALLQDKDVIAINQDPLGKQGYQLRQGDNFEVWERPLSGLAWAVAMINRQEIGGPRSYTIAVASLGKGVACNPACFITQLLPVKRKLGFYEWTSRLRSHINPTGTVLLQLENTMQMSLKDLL
miR-21 FLuc: miR-21 reporter, rising signal; HeLa miR-21 FLuc reporter, luciferase, 48 h; Potency, µM (highest dose often 38.3 µM), for the others: top-dose reporter change, positive = more light; 340,000 tested, under 10 active; AID 2288; active = well fitted rising curve with a large enough effect; inconclusive = small, poorly fitted or top-dose-only effect; inactive = no such curve, though single readings can be large or run the other way;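 note: % of control where 0% means no effect; miR-21 action dims this reporter so a rising signal means less miR-21 action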
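Compounds were titrated across several concentrations (up to approximately 40 uM) and incubated 48 hours with HeLa miR-21-FLuc reporter cells (miR-21 target sequence downstream of FLuc, endogenous miR-21). Readout was firefly luciferase luminescence after lytic detection reagent.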
Numbers without * were called inactive; u = inconclusive; x = not tested or not shown.

structure | Rango complex inh | Rango dissoc inh | GLA inh pH 4.5 | miR-21 FLuc
Fc1ccc(-c2nnc(-c3ccc(Cl)cc3Cl)o2)cc1 | 0.2% | -4% | 6 | -55%
NS(=O)(=O)c1ccc(NCCCn2ccnc2)c([N+](=O)[O-])c1 | 2.2% | -10% | x | -1%
Cn1nccc1C(=O)NC1CCCc2c1cnn2-c1ccc(C(C)(C)C)cc1 (stereo unspecified) | -1.0% | -9% | x | 24%
CCCN1CCN(CCCNC(=O)CN2C(=O)c3cccnc3Oc3ccc(C)cc32)CC1 | -0.3% | -4% | x | 1%
Cn1c(=O)c2c(nc(NCCO)n2C)n(C)c1=O | -0.5% | 3% | -1 | 0%
Cc1cc(S(=O)(=O)NCCC2=CCCCC2)ccc1Br | 0.4% | 2% | x | x
O=C(Nc1cccc(C(=O)O)c1)/C(=C\c1ccco1)NC(=O)c1ccccc1Cl | u | -9% | x | -4%
FC(F)c1nnc2ccc(Cl)nn12 | 0.8% | 0% | -13 | 0%
COc1ccc(Cn2c(C)c(C)c(C#N)c2NC(=O)Nc2ccccc2)cc1 | 0.4% | 9% | 2 | -2%
O=C(c1cnn(C(=O)c2ccccc2F)c1)c1ccccc1O | -3.2% | -21% | x | x
O=C(NNC(=S)Nc1ccccc1)c1cc(-c2cccnc2)nc2ccccc12 | -1.0% | u | 4 | 4%
Cc1ccc(OC(=O)CCN2C(=O)c3ccccc3C2=O)cc1C | 0.2% | 6% | -9 | -1%
CCOC(=O)CC1CCCCN1Cc1cn(C)nc1-c1ccc2c(c1)OCCO2 (stereo unspecified) | 1.2% | 4% | 3 | -1%
CC(=O)c1cnn(-c2cc(Oc3ccccc3C)ncn2)c1C | 0.2% | 0% | -6 | -21%
Cc1ccc(NC(=O)C2CCCN2C(=O)c2cccs2)c(C)c1 (stereo unspecified) | 1.9% | -1% | x | -3%
CC(=O)OC1CCC2(C)C(=CCC3C2CCC2(C)C3CC3OC4(CCC(C)CN4)C(C)C32)C1 (stereo unspecified) | -0.2% | -4% | 9 | 2%
COc1ccc(C(CNC(=O)C2CC(=O)N(Cc3ccccc3)C2)N2CCOCC2)cc1 (stereo unspecified) | -0.5% | -8% | x | x
Cc1cnc(NC(=O)CSc2ccc(Cl)cc2)s1 | -0.5% | 0% | 1 | -14%
CCOC(=O)c1sc(=S)n(C)c1NC(=O)c1ccc(OC)cc1 | 5.0% | 11% | -3 | -1%
O=C(CSc1n[nH]c(-c2ccncc2)n1)c1cccc([N+](=O)[O-])c1 | 4.1% | 8% | -5 | -2%
O=C(NCCc1ccc(Cl)cc1)C1CCCN1C(=O)NCc1ccccc1 (stereo unspecified) | u | 15% | x | 1%
Cc1ccccc1Nc1nc(N)nc(CN(C)Cc2ccccc2Cl)n1 | -2.7% | 20% | -3 | -35%
CC1C/C(=C/c2cccs2)C(=O)/C(=C/c2cccs2)C1 (stereo unspecified) | -7.5% | -16% | -1 | -13%
C#CCNc1ccc(C(=O)OCC)cc1 | 1.5% | 2% | -15 | -48%
COc1ccc(S(=O)(=O)N/N=C(/C)c2ccc(C)o2)cc1 | 2.6% | -5% | x | x
CC(=O)c1cnc(N(C)C)s1 | 2.5% | 4% | -1 | -1%
Cc1cc(N)n2nc(C)c(-c3ccc(Cl)cc3)c2n1 | 0.3% | -12% | -7 | -34%
CCOC(=O)c1[nH]cnc1C(=O)Nc1ccccc1 | 1.0% | 1% | 13 | 1%
CCC(C)[C@H](NC(=O)NCCC1=CCCCC1)C(=O)O (stereo partly specified) | 1.3% | -16% | 3 | 0%
Cc1ccc(C)c(NC(=O)CSc2nnc(-c3cc(C)[nH]n3)n2N)c1 | -0.3% | 17% | x | 3%
CCNC(=O)NC(=O)C(C)OC(=O)c1ccc(SC)cc1OC (stereo unspecified) | -1.0% | 4% | 2 | -5%
CC(=O)N1CCN(c2ccccc2NC(=O)COc2ccc(Br)cc2)CC1 | 0.4% | 15% | -2 | 4%
CC(C)(C)NC(=O)CSc1nncn1-c1ccccc1 | 4.7% | 4% | 3 | -5%
O=C(Nc1cccc(S(=O)(=O)Nc2ccc(Cl)cc2)c1)c1ccc[n+]([O-])c1 | 3.7% | 10% | u | -1%
Cc1c(C(=O)N(C)Cc2ccc(OC(F)F)cc2)oc2ccccc12 | 1.5% | 11% | x | -19%
O=C(NCCNCc1ccccn1)c1ccco1 | 0.7% | 0% | 9 | 2%
Cc1nn(CC(=O)N2CCCCCC2)c(=O)c2cc3occc3n12 | 2.6% | 8% | x | 0%
CCOC(=O)c1cc2c(ccn2C)n1Cc1ccc(Cl)cc1 | u | -20% | 0 | -4%
O=C1ON=C(c2ccc([N+](=O)[O-])cc2)/C1=C/c1ccccc1O | -0.1% | 13% | x | -2%
CCc1cccc(OCC(=O)N(C)CC(=O)Nc2cccc(F)c2)c1 | 0.3% | 1% | x | x
COc1ccc(Cc2nc(C(=O)Nc3ccc(F)cc3)cs2)cc1 | 0.1% | 17% | -3 | -7%
CCCCC(CCC(=O)Nc1cccc([N+](=O)[O-])c1)C(=O)O (stereo unspecified) | 3.8% | 7% | -5 | 4%
COC(=O)c1ccc(Cl)c(NC(=O)CN(c2ccccc2)S(=O)(=O)c2ccc(OC)cc2)c1 | -0.1% | 0% | -3 | 18%
COCC(=O)c1[nH]c2ccccc2c1C | 3.3% | 8% | -4 | -6%
CCOC(=O)c1c(COc2ccccc2)oc2ccc(O)cc12 | u | -4% | 1 | -11%
CCOc1ccc(C(=O)NCC(=O)OCC(=O)Nc2ccccc2OC)cc1 | -0.6% | -1% | 5 | -4%
N#C/C(=C(/O)COc1ccc(Br)cc1)c1nnc2n1CCCCC2 | -0.6% | 13% | 9 | 1%
O=C(NC(=O)c1ccccc1N1CCCCC1)Nc1ccc(Br)cc1 | -2.4% | -9% | -9 | 3%
CC(=O)CC(C)(C)S(=O)(=O)c1ccc(NC(C)=O)cc1 | -2.4% | 25% | -3 | 0%
COc1ccc(NC(=O)NCCN2CCN(c3ccc(C)cc3)CC2)c(Cl)c1 | -2.0% | 2% | x | 0%

(cont.)
structure | Rango complex inh | Rango dissoc inh | GLA inh pH 4.5 | miR-21 FLuc
Cc1ccc2[nH]c3c(c2c1)CNCC3 | 9.8% | 0% | x | -5%
Cc1cc(OCC(=O)Nc2ccncc2)cc(C)c1Br | 0.1% | 1% | -2 | 16%
O=C(O)c1ccc(N2CCN(c3ccc(Cl)cc3)CC2)c([N+](=O)[O-])c1 | -4.7% | 27% | x | -21%
COc1ccc(C2C3CCCCC3(O)CCN2C(=O)c2cccs2)cc1 (stereo unspecified) | -0.7% | 14% | x | -11%
COc1ccccc1CNS(=O)(=O)CCNC1CCCCC1 | -0.6% | -8% | x | x
CCc1cccc(CC)c1N1C(=O)c2cc(N3CCOCC3)c([N+](=O)[O-])cc2C1=O | -0.9% | -2% | -7 | -1%
CC(C)(C)OC(=O)C[C@@H]1C/C=C\C[C@H](CC(=O)N(CCO)Cc2ccccc2)C(=O)NC[C@@H](c2ccccc2)OC1=O | 2.2% | -5% | x | x
COc1ccc(-c2cc(C)no2)cc1S(=O)(=O)Nc1cccc(C)c1 | 0.1% | -6% | x | 17%
Cc1nonc1OCCNCCNc1ccc([N+](=O)[O-])cc1Cl | 2.1% | 2% | 0 | -2%
COc1ccc(CNc2ncnc3c2[nH]c2cc(OC)c(OC)cc23)cc1 | -0.6% | -5% | -2 | -1%
COc1ccccc1/C=N/N1CCN(c2ccc(Cl)cc2)CC1 | -5.5% | 17% | x | 3%
N#Cc1ccc(C(=O)N2CCN(S(=O)(=O)c3ccc(Br)s3)CC2)cc1 | u | 12% | -3 | 1%
CC(SC1=NCCN1S(=O)(=O)c1ccc(F)cc1)c1ccccc1 (stereo unspecified) | -0.7% | -15% | x | -1%
COC(=O)C1=C(C)N(Cc2ccccc2)C(=NCc2ccc(OC)cc2)N[C@H]1c1cccc(F)c1 | 3.1% | 1% | x | u
CCc1ccc(CN2CCCC(CNS(=O)(=O)c3ccc(OC)cc3)C2)cc1 (stereo unspecified) | 1.4% | -9% | -5 | 7%
Cc1c(/C=N/Nc2nc3ccccc3[nH]2)c2ccccc2n1C | 0.1% | -1% | -4 | u
CCn1cc(C2C(C(=O)Nc3ccc(Br)cn3)=C(C)NC3=C2C(=O)CCC3)c(C)n1 (stereo unspecified) | u | u | u | -12%
S=C(NCc1ccccn1)Nc1ccc(Cl)cc1Cl | -0.7% | -2% | 4 | -40%
CCOC(=O)C1=C(C)NC(C)=C(C(=O)OCC)C1C(=O)OCC(=O)NCc1ccccc1 | -3.4% | -4% | x | x
C#CCCc1ccccc1/C=[N+](/C)[O-] | 5.2% | -11% | x | x
O=P(O)(Cc1ccccc1)Cc1ccccc1 | 0.5% | -7% | x | -1%
Fc1ccc(C2CC(c3ccco3)n3ncnc3N2)cc1 (stereo unspecified) | u | -6% | 0 | -3%
O=C(CN1CCN(c2ccc(F)cc2)CC1)N(C1CCCC1)C1CCS(=O)(=O)C1 (stereo unspecified) | 0.4% | -3% | x | x
Cc1csc(SC(C)C(=O)NC2CCCCC2C)n1 (stereo unspecified) | 0.5% | 1% | x | x
COc1ccc(CNc2nc3nc4c(c(=O)n3[nH]2)CCC4)cc1 | 0.0% | 9% | 3 | 0%
CCN1CCN(c2nc(-c3ccccc3)nc3ccccc23)CC1 | 3.8% | 12% | -9 | -15%
COc1ccc(CNc2nc(S(=O)(=O)c3ccccc3)c(Cl)s2)cc1OC | 5.9% | -1% | 2 | 17%
CCOC(=O)c1ccccc1-n1c(C)cc(C2N=C(N)Nc3nc4ccccc4n32)c1C (stereo unspecified) | 6.6% | 8% | 1 | 0%
Cc1cccc(N(C)C(=O)c2cc(S(=O)(=O)N3CCc4ccccc43)cn2C)c1 | 1.4% | 13% | x | 8%
O=C(NCc1cccs1)c1cc(-c2ccccc2)on1 | -1.5% | -14% | -9 | -51%
CNc1ccc(Br)cc(C(=O)/C=C/c2ccc3c(c2)OCO3)c1=O | u | -29% | -27 | -15%
CSc1ncccc1C(=O)OCc1ccc(COC(=O)c2cccnc2SC)cc1 | x | x | 4 | -1%
CC(C)CNC(=O)COC(=O)c1c2c(nc3ccccc13)/C(=C\c1cccs1)CC2 | u | u | x | x
CCc1cc(=O)[nH]c(SCC(=O)N2CCOCC2)n1 | u | -13% | x | x
COc1ccc(NC(=S)N2CCOCC2)c(OC)c1 | -1.4% | 5% | -4 | 1%
COc1ccc(CN(CCc2ccccc2)Cc2ccccc2)cc1OC | 2.5% | 22% | x | 8%
O=C1CCC(=O)N1c1ccc(-c2nc3ccccc3s2)cc1 | 1.1% | -2% | 0 | -63%
CN(CC(=O)Nc1ccccc1Cl)C(=O)c1ccc(Cl)c(S(=O)(=O)N2CCCCCC2)c1 | -1.6% | 0% | x | x
Cc1ccc(NC(=O)c2cccs2)cc1 | u | 4% | 15 | -45%
Cc1cccc(NC(=O)Cc2ccc(-c3ccccc3)cc2)n1 | 3.4% | 2% | x | -15%
O=C(Nc1ccccc1Cl)O/N=C/c1ccc(F)cc1 | 5.6% | 4% | x | x
COC(=O)c1ccccc1NC1OC(=O)c2ccccc21 (stereo unspecified) | 1.0% | -18% | 4 | 0%
O=Cc1cccn1-c1nccc(-c2ccco2)n1 | -1.7% | 6% | 1 | -28%
O=C(NN=Cc1ccccc1O)C1CC1 | -1.0% | 4% | x | x
COc1ccccc1NS(=O)(=O)c1cc(NC(=O)c2cccs2)ccc1N1CCCC1 | 0.1% | 1% | -1 | 16%

Only part of the results is shown; the hit share may differ from the screen's.
